Source: PubChem BioAssay (several laboratories)
Mtb bLac sens – beta-lactam sensitization of Mtb H37Rv; AID 434955; M. tuberculosis H37Rv growth with meropenem, percent inhibition; hits of this screen are not shown here; inhibition, % at 25 µM; 330,000 compounds, 0.27% hits;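 active = about 74% or more and at least 40 points above the plate without the antibiotic, then above 30% in a dose series; inconclusive = first-round hits that could not be retested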;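 note: growth measured after seven days incubation then overnight dye step; 0% = bacteria only wells and 100% = bacteria with antibiotic; twin plates without the antibiotic show which effects depend on it; some results filed as inactive read as strong as hits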
Arbovirus anti – blocks arbovirus infection; arbovirus infection cell-based antiviral screen; inhibition, % at 10 µM; AID 1251; 200,000 compounds, 0.37% hits;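 active = inhibition from about 30%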;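 note: bluetongue infection of BSR cells; cell survival read as ATP light after 72 h; 0% = infected wells without compound and 100% = uninfected wells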
Mtb H37Rv – M. tuberculosis H37Rv growth inhibitors, H37Rv strain (AID 1626) | M. tuberculosis H37Rv growth inhibition; higher % means a stronger effect | inhibition, % at 10 µM; hits with a dose series show IC50 in µM | 220,000 compounds, 0.95% hits;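 active = confirmed in a dose series; inconclusive = inhibition above 80% but not taken into the dose series; inactive = below 80% or under 30% at every dose of the series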;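 note: bacteria incubated seven days before Alamar blue readout; 0% = bacteria only wells and 100% = bacteria with antibiotic wells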
RecA splice inh – Mtb RecA intein splicing inhibition; cell-free RecA intein splicing, fluorescence; P9WHJ3; AID 2221; 290,000 compounds, 0.75% hits; inhibition, %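 (about 9 µM by stock and volumes)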; in the data active = inhibition above about 30%; inconclusive = no clear call, values can overlap the other calls;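 note: 0% = vehicle wells and 100% = reference inhibitor control wells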
Target sequence (P9WHJ3 whole entry, looked up, canonical isoform): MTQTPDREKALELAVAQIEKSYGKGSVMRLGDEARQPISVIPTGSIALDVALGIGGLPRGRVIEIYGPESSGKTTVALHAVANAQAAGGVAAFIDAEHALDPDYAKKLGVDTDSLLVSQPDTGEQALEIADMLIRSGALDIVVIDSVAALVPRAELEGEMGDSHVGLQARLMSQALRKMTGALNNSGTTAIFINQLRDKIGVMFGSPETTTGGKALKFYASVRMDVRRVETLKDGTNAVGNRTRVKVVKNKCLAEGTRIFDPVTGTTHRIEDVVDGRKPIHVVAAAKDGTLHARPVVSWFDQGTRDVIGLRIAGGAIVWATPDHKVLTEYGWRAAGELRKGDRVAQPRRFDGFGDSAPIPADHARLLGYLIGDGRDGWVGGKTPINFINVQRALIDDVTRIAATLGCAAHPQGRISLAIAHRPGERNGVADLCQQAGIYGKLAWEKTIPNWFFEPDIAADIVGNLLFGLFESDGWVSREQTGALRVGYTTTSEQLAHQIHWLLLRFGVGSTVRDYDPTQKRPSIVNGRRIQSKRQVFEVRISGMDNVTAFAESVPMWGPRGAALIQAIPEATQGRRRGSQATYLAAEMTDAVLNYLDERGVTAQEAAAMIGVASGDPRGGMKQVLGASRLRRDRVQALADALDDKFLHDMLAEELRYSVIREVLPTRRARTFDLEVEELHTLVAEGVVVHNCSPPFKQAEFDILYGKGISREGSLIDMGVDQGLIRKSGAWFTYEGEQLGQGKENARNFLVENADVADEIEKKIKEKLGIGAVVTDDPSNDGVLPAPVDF
YopH inh – inhibitors of Yersinia enterocolitica YopH tyrosine phosphatase. fluorescence Ex485/Em525. inhibition, %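 (about 10 µM by stock and volumes)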. 140,000 compounds, 0.16% hits. AID 898;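 active = inhibition of 50% or more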;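 note: controls were vehicle for no effect and minimum signal wells for full effect; inactives centre near -20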
Arbovirus anti repeat – recorded beside Arbovirus anti, whose call it bears; inhibition, %; measured here: 10K subset replicate screen; many hits read low in the repeat;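 first of two repeat runs on a subset; 0% = infected and 100% = uninfected wells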
* marks the source's active call; other numbers are inactive results; ? = inconclusive; · = not tested or not shown. Not all compounds are listed (hit frequency here may not be typical).

SMILES	Mtb bLac sens	Arbovirus anti	Mtb H37Rv	RecA splice inh	YopH inh	others
COc1ccccc1OCC(=O)NCCSCc1ccc(Cl)cc1	1	8	9%	6.6	-2
O=c1[nH]c2ccccc2c(=O)n1-c1ccc(Cl)cc1Cl	2	-11	-5%	-0.5	·
O=C(NCCC1=CCCCC1)C1CC(=O)N(Cc2ccccc2)C1 (configuration not stated)	-13	·	·	3.3	·
O=C(C[n+]1cccc(NC(=O)c2ccccc2)c1)c1ccccc1	-16	1	·	0.6	-14
COc1ccc(C(=O)Nc2ccc(S(=O)(=O)NCc3ccco3)cc2)cc1OC	9	4	-14%	-0.4	-39
CCC(=O)c1ccc(OCC(=O)Nc2nc(-c3cccnc3)cs2)cc1	2	·	·	-0.9	·
CCC(Sc1nc(C)cc(=O)[nH]1)C(=O)Nc1sc2c(c1C#N)CCCC2 (configuration not stated)	-6	15	-4%	2.6	-21	Arbovirus anti repeat=19
CCN(C(=O)c1ccc(S(=O)(=O)N2CCCCC2)cc1)C1CCS(=O)(=O)C1 (configuration not stated)	-6	·	·	1.3	·
O=C(CSc1nnc(Cc2ccccc2)n1-c1ccc(Cl)cc1)N1CCOCC1	-4	2	-3%	0.8	31
COc1ccc(C(=O)Nc2ccc(C(=O)N3CCC(C)CC3)cc2)cc1OC	-1	·	·	-1.1	·
O=C(OC(C(=O)NC1CCCCC1)c1ccccn1)c1cccs1 (configuration not stated)	2	2	3%	1.3	15
COC(=O)c1cc(S(=O)(=O)Nc2cccc(C)c2C)cn1C	-4	·	·	4.0	·
CCOC(=O)c1c(NC(=S)Nc2cc([N+](=O)[O-])ccc2OC)sc2c1CCCCC2	7	-2	5%	-2.8	-16
CC(C)c1ccccc1-n1c(SCC(=O)c2ccc3c(c2)NC(=O)CO3)nc2ccccc2c1=O	25	-9	44%	·	·
Cc1cccc(CSC2=NCCN2C(=O)C2CC2)c1	-5	-3	-3%	0.2	-16
O=C(c1ccc(CNc2c(NC3CCCCC3)c(=O)c2=O)cc1)N1CCc2ccccc21	·	-2	7%	·	16
COc1ccccc1N=Cc1c(C)c(C#N)c2[nH]c3ccccc3n2c1=O	100	-14	3%	-1.8	·
CCOC(=O)c1ccc(NC(=O)CCOc2ccc(C)cc2)cc1	98	6	21µM*	-2.7	-11
Cc1ccc(S(=O)(=O)NCCC(=O)OCC(=O)N2CCCC2=O)cc1	-3	·	·	2.6	·
CC(=O)c1ccc(OCCCC(=O)N2CCN(S(=O)(=O)c3cc(C)ccc3C)CC2)cc1	-11	·	·	1.8	·
COc1ccc(-c2cc(C(F)F)n3ncc(C(=O)Nc4ccc(C(=O)N5CCOCC5)cc4)c3n2)cc1	3	-2	-3%	-2.4	·
CC1CN(C(=O)c2cc3cc([N+](=O)[O-])ccc3oc2=O)CC(C)O1 (configuration not stated)	0	1	-10%	-2.4	·
CCCCCCCCCC(=O)Nc1cccnc1	2	-10	-7%	5.1	·
O=C(NCC1CCCO1)c1cc2ccccc2nc1Cl (configuration not stated)	4	4	2%	-0.6	·
Cc1ccc(S(=O)(=O)c2ccc(-n3nc(C)cc3N)cc2)cc1	2	4	1%	1.2	·
SMILES	Mtb bLac sens	Arbovirus anti	Mtb H37Rv	RecA splice inh	YopH inh	others
COc1ccc(OC)c(CNC(=O)C2CCN(S(=O)(=O)N3CCCC3)CC2)c1	0	-7	-13%	-1.2	-42
COC(=O)c1ccc(NS(=O)(=O)c2ccc3[nH]c(=O)oc3c2)cc1	3	·	·	-6.6	·
N/C(=N\OC(=O)c1cccc(F)c1)c1ccccn1	-1	·	·	-0.3	·
COc1ccc(NC(=O)n2ncc3c(C)cccc32)cc1OC	4	·	·	10	·
CCCCC(=O)N/N=C/c1c(O)n(CCC2=CCCCC2)c(=O)[nH]c1=O	4	·	3%	2.7	·
O=C(COc1ccc(Cl)cc1Cl)Nc1nnc(C2=COCCO2)o1	13	0	1%	-0.2	·
COC(=O)c1cc(C(=O)OCC(=O)NC2CCCC2)cc([N+](=O)[O-])c1	8	·	·	-0.8	·
O=C(N=C1SC2CS(=O)(=O)CC2N1c1ccc(Cl)c(Cl)c1)C1CCCO1 (configuration not stated)	-5	·	·	-1.2	·
CCc1cccc(NS(=O)(=O)c2ccc3c(c2)NC(=O)CC(=O)N3)c1	-1	-2	2%	2.3	·
CSc1nc(C)cc(SCCO)n1	7	3	-1%	0.2	-29	Arbovirus anti repeat=1
N=C1C(c2nc3ccccc3[nH]2)=C(O)CN1c1ccc(F)cc1	·	5	1%	1.8	8
COCCCNC(=S)NNC(=O)c1csc(C)n1	-5	·	6%	-0.2	·
O=C(NCCN1CCOCC1)C(Sc1ccccc1)c1ccccc1 (configuration not stated)	-9	·	-2%	6.6	·
Cc1ccc(-c2noc(-c3ccccc3F)n2)cc1	-4	-2	0%	3.5	·
COc1ccc(NC(=O)c2cc(S(=O)(=O)N3CCCCC3)c[nH]2)c(OC)c1	-4	·	·	1.4	·
CCOC(=O)[C@@]1(C#N)[C@@H]2C=CC(C(N)=O)=CN2[C@@H](C(N)=O)[C@@H]1c1cccc(Cl)c1	-4	6	6%	-1.9	23
CCN1/C(=C/C=C/C=C/c2sc3ccccc3[n+]2CC)Sc2ccccc21	99	-45	?	16	35
CC(=O)Nc1ccc(NC(=O)CSC2=NS(=O)(=O)c3ccccc3N2)cc1	-12	·	·	-1.8	·
O=C(CCCn1c(=O)c2ccccc2n(Cc2cccc(F)c2)c1=O)NC1CCN(Cc2ccccc2)CC1	67	-15	65%	4.7	·
COc1ccccc1C(=O)NCCC(=O)N(C)Cc1ccc(C)o1	-14	·	·	2.1	·
COc1cc(S(=O)(=O)N2CCCN(C)CC2)ccc1NC(C)=O	1	·	·	0.4	·
Cc1ccc(C(=O)Nc2ccc3c(c2)ncn3C)cc1	-13	0	·	-1.8	-19
Cc1cc(-c2ccccc2)c(C#N)c(=S)[nH]1	-1	-1	-1%	6.8	-23
COc1cc(NC(=O)c2ccc(-c3csc(C)n3)cc2)c(OC)cc1Cl	2	·	·	2.2	·
CC(=O)c1cccc(NC(=O)NCCS(C)=O)c1 (configuration not stated)	-2	1	0%	-0.3	7

Fetched by compound from the list above (2):
SMILES	Mtb bLac sens	Arbovirus anti	Mtb H37Rv	RecA splice inh	YopH inh	others
O=C(CCCn1c(=O)c2ccccc2n(Cc2cccc(F)c2)c1=O)NC1CCN(Cc2ccccc2)CC1	67	-15	65%	4.7	·
CCC(=O)c1ccc(OCC(=O)Nc2nc(-c3cccnc3)cs2)cc1	2	·	·	-0.9	·

(more compounds)
SMILES	Mtb bLac sens	Arbovirus anti	Mtb H37Rv	RecA splice inh	YopH inh	others
CNC(=S)Nc1sc2c(c1C(=O)OC)CCC2	4	4	-2%	-2.3	·
COc1ccc(C(=O)NC(=S)Nc2nc(-c3ccc(OC)c(Br)c3)cs2)cc1Br	66	·	·	1.1	·
CCNc1nc(SC(C)C(=O)Nc2ccccc2)nc(N(C)C)n1 (configuration not stated)	11	-2	·	2.8	·
O=C(NC1(C(F)(F)F)NC(=O)N(Cc2cccnc2)C1=O)c1cccs1 (configuration not stated)	-3	11	-4%	1.8	-23
COc1ccc(-c2nnc(-c3ccc(N(C)C)cc3)o2)cc1	50	5	-6%	1.7	3
CC(=O)Nc1ccc(OCC(O)CN2CCN(Cc3ccccc3)CC2)cc1 (configuration not stated)	3	-2	3%	0.1	-18
O=C(NC(=S)N1CCCCC1CO)C12CC3CC(CC(C3)C1)C2 (configuration not stated)	4	·	-6%	-0.2	·
CCN(C(=O)COC(=O)c1ccc(N2C(=O)c3ccccc3C2=O)cc1)C1CCS(=O)(=O)C1 (configuration not stated)	3	2	-1%	2.7	·
CCOc1ccc(S(=O)(=O)NCCC(=O)Nc2ccncc2)cc1	1	·	·	-1.5	·
Cc1ccc(-c2cc(C(=O)N3CCCC3)no2)cc1	4	3	-4%	1.1	32
Cc1ccc(S(=O)(=O)N[C@H](C(=O)OCn2nnc3ccccc3c2=O)C(C)C)cc1	75	11	6%	0.2	-8
Cc1c(CNCCc2ccc(Cl)cc2)c(C(=O)O)c(C)n1Cc1ccccc1	48	20	9%	6.1	·
COC(=O)c1sccc1NC(=O)c1ccncc1	-5	0	-9%	0.2	-14
COc1ccc2nc(SCC(=O)Nc3ccc4c(c3)OCCO4)[nH]c2c1	7	-2	·	-1.2	-43
C=CCOc1ccc(C=Nc2ccc(OC)cc2)c(O)c1	-9	-5	>100µM*	-3.3	·
COc1ccc(OC)c(NC(=O)C2CC2c2ccccc2)c1 (configuration not stated)	2	·	·	2.3	·
COc1ccccc1CNC(=O)C(NC(=O)c1ccccc1C)C(C)C (configuration not stated)	3	13	-2%	-0.1	·
CCn1c2ccccc2c2cc(NC(=O)CSc3nccc(=O)[nH]3)ccc21	95	1	-3%	9.9	·
CCC(C)c1ccc(S(=O)(=O)N2CC(=O)Nc3ccccc32)cc1 (configuration not stated)	3	13	-2%	4.7	-26
Nc1nc(N)nc(-c2ccccn2)n1	-12	0	-3%	-0.3	-19
O=C(CSc1n[nH]c(-c2ccc(S(=O)(=O)NC3CCCCC3)cc2)n1)N1CCCC1	-3	3	5%	2.3	-16
CC1CN(CC(=O)Nc2cccc(C(=O)Nc3cccc(C(F)(F)F)c3)c2)CC(C)O1 (configuration not stated)	-7	-17	7%	-0.4	-16
O=C(c1ccc(CN2CCOCC2)cc1)N1CCN(Cc2ccccc2)CC1	-10	-1	-1%	-1.5	-15	Arbovirus anti repeat=8
COc1ccc2c(c1OC)C(=O)N1c3ccccc3SC21 (configuration not stated)	-1	6	8%	0.2	-27
Cn1nc(C(=O)Nc2ccccc2)c2c1-c1ccccc1S(=O)(=O)C2	2	·	·	0.1	·
CCCCCCSc1nsc(NC(=O)CC(C)C)n1	99	-17	11%	-2.3	-40

Compounds from the list above that have an NH in an aromatic ring:
SMILES	Mtb bLac sens	Arbovirus anti	Mtb H37Rv	RecA splice inh	YopH inh	others
O=c1[nH]c2ccccc2c(=O)n1-c1ccc(Cl)cc1Cl	2	-11	-5%	-0.5	·
CCC(Sc1nc(C)cc(=O)[nH]1)C(=O)Nc1sc2c(c1C#N)CCCC2 (configuration not stated)	-6	15	-4%	2.6	-21	Arbovirus anti repeat=19
COc1ccccc1N=Cc1c(C)c(C#N)c2[nH]c3ccccc3n2c1=O	100	-14	3%	-1.8	·
COC(=O)c1ccc(NS(=O)(=O)c2ccc3[nH]c(=O)oc3c2)cc1	3	·	·	-6.6	·
CCCCC(=O)N/N=C/c1c(O)n(CCC2=CCCCC2)c(=O)[nH]c1=O	4	·	3%	2.7	·
N=C1C(c2nc3ccccc3[nH]2)=C(O)CN1c1ccc(F)cc1	·	5	1%	1.8	8
COc1ccc(NC(=O)c2cc(S(=O)(=O)N3CCCCC3)c[nH]2)c(OC)c1	-4	·	·	1.4	·
Cc1cc(-c2ccccc2)c(C#N)c(=S)[nH]1	-1	-1	-1%	6.8	-23
COc1ccc2nc(SCC(=O)Nc3ccc4c(c3)OCCO4)[nH]c2c1	7	-2	·	-1.2	-43
CCn1c2ccccc2c2cc(NC(=O)CSc3nccc(=O)[nH]3)ccc21	95	1	-3%	9.9	·
O=C(CSc1n[nH]c(-c2ccc(S(=O)(=O)NC3CCCCC3)cc2)n1)N1CCCC1	-3	3	5%	2.3	-16
